2A StopGo – High Throughput Screening for Foot and Mouth Disease Virus Antivirals. human cells with a luciferase reporter of 2A StopGo recoding; control for the full effect not named in the record. Potency, µM (top dose mostly 57.9 µM), without a hit: at the top dose signal change, negative = less light. 410,000 tested, 1.2% active. AID 1159524, 2015; active = well fitted falling curve with a large enough effect; inconclusive = small, poorly fitted or top-dose-only effect; inactive = no such curve, though single readings can be large or run the other way; tested in HEK293T cells; also: % is scaled to controls: 0 for no effect and ±100 for the full control effect; nearly all actives have a fitted effect of over 45% in size; luciferase light after 4 h
Cruzain noTriton – qHTS Assay for Promiscuous and Specific Inhibitors of Cruzain (without detergent); Potency, µM, inactives show max response, negative = inhibition, hits mostly inhibitors; purified cruzain, Z-FR-AMC fluorescence, no detergent; Cruzipain (Trypanosoma cruzi), P25779; 200,000 tested, 2.3% active;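 also: plate controls were enzyme without inhibitor for no effect and buffer without enzyme for full effect; nearly all actives have a fitted effect of over 40% in size; top concentration of the series not given in the record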
Target sequence (P25779 123-467 limits assumed): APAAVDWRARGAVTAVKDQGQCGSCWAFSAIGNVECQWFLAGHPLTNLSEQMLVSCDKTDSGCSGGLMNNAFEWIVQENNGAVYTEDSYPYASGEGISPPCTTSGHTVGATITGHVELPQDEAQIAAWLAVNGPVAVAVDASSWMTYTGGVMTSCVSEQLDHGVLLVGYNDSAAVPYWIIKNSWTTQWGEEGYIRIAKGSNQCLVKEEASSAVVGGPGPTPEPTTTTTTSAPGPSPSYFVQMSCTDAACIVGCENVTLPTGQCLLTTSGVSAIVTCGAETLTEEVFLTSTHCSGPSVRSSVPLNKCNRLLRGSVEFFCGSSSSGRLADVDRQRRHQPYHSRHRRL
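Purified cruzain at 1.5 nM, pre-incubated 15 min with compound at room temperature in 100 mM sodium acetate pH 5.5, 5 mM DTT, 0.00005% Triton X-100. Reaction started with 2 uM Z-FR-AMC; AMC fluorescence increase over 60 s gives rate.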
LASV entry inh – qHTS for Inhibitors of binding or entry into cells for Lassa Virus. Lassa virus pseudotype entry inhibition, cell reporter; control for the full effect not named in the record. Potency, µM (series often up to 37.9 µM), without a hit: at the highest dose activity change, negative = inhibition, usual class: inhibitors. 300,000 tested, 1.2% active; active means well fitted inhibition curve with a large enough effect; inconclusive means small, poorly fitted or top-dose-only effect, or effect the other way; inactive means flat fitted curve, though single readings scatter; tested in HEK293 cells; also: % is scaled to controls: 0 for no effect and ±100 for the full control effect; nearly all actives have a fitted effect of over 50% in size; luciferase read-out
SARS PLpro yeast – qHTS of Yeast-based Assay for SARS-CoV PLP; S. cerevisiae expressing SARS-CoV PLpro, growth rescue; control for the full effect not named in the record; Potency, µM (doses to about 32.9 µM), inactives show at the top dose activity, positive = growth rescue; 330,000 tested, 0.19% active; active means well fitted rising curve with a large enough effect; inconclusive means small, poorly fitted or top-dose-only effect; inactive means no such curve, though single readings can be large or run the other way; also: 0% is about no effect; nearly all actives have a fitted effect of over 55% in size; growth read by luminescence after 48 h
MARV entry inh – qHTS for inhibitors of binding or entry into cells for Marburg Virus. Marburg virus pseudotyped entry inhibition, cell reporter; control for the full effect not named in the record; about a third of the inactives were read at about 46 µM. 300,000 tested, 1.8% active. Potency, µM (highest dose often 37.8 µM), inactives show at the top dose activity change, negative = inhibition, hits mostly inhibitors; active = well fitted inhibition curve with a large enough effect; inconclusive = small, poorly fitted or top-dose-only effect, or effect the other way; inactive = flat fitted curve, though single readings scatter; tested in HEK293 cells; about a fifth of its hits are not listed in these tables; also: % is scaled to controls: 0 for no effect and ±100 for the full control effect; luciferase read-out
Cruzain inh Det – qHTS Assay for Promiscuous and Specific Inhibitors of Cruzain (with detergent) | 200,000 tested, 0.43% active | Potency, µM, without a hit: max response, negative = inhibition, usual class: inhibitors | Cruzipain (Trypanosoma cruzi), P25779 | purified cruzain, Z-FR-AMC fluorescence, 0.01% Triton;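 also: plate controls were neutral wells for no effect and buffer without enzyme for full effect; nearly all actives have a fitted effect of over 40% in size; top concentration of the series not given in the record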
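Steps: dispense cruzain (1.5 nM final) in acetate buffer pH 5.5 with DTT and 0.01% Triton X-100; pin-transfer compounds; incubate 15 min RT; add Z-FR-AMC (2 uM final); read fluorescence every 30 s, using the 60 s intensity change.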
NS1 function inh – qHTS Assay for Inhibitors of Influenza NS1 Protein Function; S. cerevisiae slowed by influenza A NS1, growth recovery by OD600; 270,000 tested, 0.4% active; Potency, µM (highest dose often 46.1 µM), for inactives: at the top dose activity, positive = more growth; active means well fitted rising curve with a large enough effect; inconclusive means small, poorly fitted or top-dose-only effect; inactive means no such curve, though single readings can be large or run the other way; also: nearly all actives have a fitted effect of over 50% in size
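Recovery from NS1-induced slow growth read by OD600 in budding yeast switched to galactose assay medium (pH 6.0, -URA) at 1:100 dilution. Compound 23 nl per well; the matching strain lacking NS1 serves as control.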
RE007 growth inh – qHTS Assay for Inhibitors of the HIV-1 protein Vpr; S. pombe RE007 Vpr strain, BacTiter-Glo ATP luminescence, 24 h; control for the full effect not named in the record; Potency, µM (highest dose often 92.2 µM), for the others: at the highest dose activity change, negative = less growth; 360,000 tested, 0.21% active; AID 651644, 2012; active = well fitted falling curve with a large enough effect; inconclusive = small, poorly fitted or top-dose-only effect; inactive = no such curve, though single readings can be large or run the other way;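 also: % is scaled to controls: 0 for no effect and ±100 for the full control effect; nearly all actives have a fitted effect of over 50% in size; the assay follows cell death caused by Vpr and the record does not say whether a fall means rescue or toxicity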
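Fission yeast strain RE007, carrying one chromosomally integrated HIV-1 vpr copy, was seeded at OD 0.01 in PMG+AL medium with 23 nL pinned compound. After 24 h at 30 °C and 99% humidity, viability was read by BacTiter-Glo luminescence.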
Starred values were filed as active, the others as inactive; ? = inconclusive; . = not tested or not shown; & = joins results of further samples; [ ] = dose if it differs, or a comment. Unless noted, calls follow the shape of the dose curve; as a rule, active = well fitted curve in the direction sought with a large enough effect; inconclusive = small, poorly fitted or top-dose-only effect, or another doubt; inactive = no such curve, though single readings can be large; an effect the other way counts as inactive or inconclusive. Potency is read from the fitted curve at half-maximal effect.

SMILES	2A StopGo	Cruzain noTriton	LASV entry inh	SARS PLpro yeast	MARV entry inh	Cruzain inh Det	NS1 function inh	RE007 growth inh
Cc1ccc(C)c(NC(=O)C(=O)NCC(c2cccnc2)N2CCN(c3ccc(F)cc3)CC2)c1 (stereo not given)	?	?	-7%[46.1 µM]	.	.	-1.7%	.	.
Cc1sc(N/N=C/c2cccnc2)nc1-c1ccc(Cl)cc1	8%	16µM*	?	-9%	?	-6.5%	13%	-6%
CC1CCN(c2nn3c(=O)c(C(=O)NC(C)C)cnc3s2)CC1	-17%	1%	0%[46.1 µM]	.	.	2.3%	.	.
O=C(Cn1cnc2ccc(Cl)cc2c1=O)NC1CCS(=O)(=O)C1 (stereo not given)	-16%	.	1%	-1%	15%[46.1 µM]	.	.	?
O=C(Nc1ccc(NC(=O)C2CC2)cn1)c1ccccc1Cl	30%[activator]	-11%	?	1%	?	0.5%	-3%	6%
CCCS(=O)(=O)c1nc(S(=O)(=O)c2ccc(C)cc2)c(NCCCN2CCOCC2)s1	-10%	4%	-25%	0%	15%	-0.4%	-6%	-9%
COC(=O)c1sccc1NC(=O)CSc1nnnn1-c1ccccc1C	-2%	-2%	-23%	11%[6.58 µM]	?	-3.6%	-6%	2%
O=C(NCCCN1CCOCC1)/C(=C/c1cccs1)NC(=O)c1ccccc1	9%	.	.	-1%	-3%[46.1 µM]	.	-5%	2%
CCc1nnc(NC(=O)CCC(=O)N2CCN(c3cc(Cl)ccc3C)CC2)s1	-17%	.	-8%[46.1 µM]	2%	-20%[46.1 µM]	.	4%	-8%
O=C(CN1CC[n+]2c(-c3cccs3)csc21)c1ccc(Br)cc1	-22%	0%	-15%&-3%	-11%	?	-1.9%	4.5µM*	-15%
O=C(N/N=C/c1cccs1)c1cc(-c2ccncc2)nc2ccccc12	?	17%	?	24%	-37%	-7.5%	-11%	1%
COc1cccc(NC(=O)Cn2nnc(-c3ccccc3N)n2)c1	.	-7%	-10%	-5%	-7%	8.1%	-45%	-11%
CN1CCN(S(=O)(=O)c2ccc(NC(=O)C(C)(C)C)cc2)CC1	8%	7%	12%	-1%	26%	0.8%	9%	10%
Cc1ccc(N(CC(=O)NC2CCCC2)C(=O)c2nsc(Cl)c2Cl)cc1	4%	.	4%[46.1 µM]	-3%	-12%[46.1 µM]	.	1%	-8%
Cc1c(C=N)c(O)n(C)c(=O)c1C#N	-20%	.	-1%	0%	21%	.	1%	13%
O=C(O)c1cccnc1SC1CC(=O)N(c2ccccc2)C1=O (stereo not given)	-18%	.	.	-3%	.	.	2%	5%
COC(=O)N1CCN(C(=O)Cc2ccc(Cl)c(Cl)c2)[C@H](CN2CCCC2)C1	-4%	5%	.	.	?	-3.9%	.	.
O=C(CCN1C(=O)c2ccccc2C1=O)NCc1cccc(Cl)c1	1%	.	0%[46.1 µM]	0%	2%[46.1 µM]	.	-1%	23%
CC1=C(C(=O)O)N2C(=O)C(NC(=O)c3ccn(C)n3)C2SC1 (stereo not given)	0%	-6%	7%	-5%	0%[46.1 µM]	7.8%	10%	-24%
CCOc1ccccc1-n1c(SCC(=O)NC(C)CC)nnc1-c1ccoc1C (stereo not given)	-2%	10%	-4%	1%	-6%	3.7%	-4%	20%
COC(=O)CCN(c1ccccc1)S(=O)(=O)c1cc(-c2cc(C)no2)ccc1C	-21%	.	.	-3%	.	.	-22%	3%
COc1ccc(CN2CCc3nc(SCC(=O)Nc4cc(C)cc(C)c4)[nH]c(=O)c3C2)cc1	-16%	12%	11%[46.1 µM]	.	17%[46.1 µM]	-2.5%	.	.
N#CC1C(=O)NC(N2CCN(c3ccccc3)CC2)=NC12CCCCC2 (stereo not given)	21%	-3%	0%	16µM*	-3%	7.6%	?	5%
COc1ccc(-c2nnc(SCC(=O)Nc3cccc(Cl)c3)o2)cc1	21%	-30%	?	4%	-1%	2.8%	-2%	1%
COc1ccc(C(=O)Nc2ccc(-c3cc4ccccc4oc3=O)c(C)c2)cc1Br	-13%	25µM*	-9%[46.1 µM]	.	.	-20%	.	.
CSc1nn(Cc2cccc(C)c2)c(N)c1S(=O)(=O)c1ccccc1	-9%	5%	?	.	.	-5.6%	.	.
CC(C)(C)n1nc(C2CC2)cc1NC(=O)Nc1ccc(Cl)cc1	5%	-2%	.	0%	.	4.0%	-1%&-5%	-4%
Cc1nc2nc(-c3ccccc3)nn2c(C)c1Cl	33%[activator]	.	14%	.	14%	.	4%	-1%
Clc1nc(Nc2ccccc2)nc(Nc2ccccc2)n1	-5%	-8%	6%	-1%	?	-5.8%	-3%	-3%
Cc1cc(S(=O)(=O)NCC(C)C)ccc1OCC(=O)N1CCOCC1	2%	11%	4%	8%	-1%	3.5%	5%	14%
Cc1ccc(Cl)cc1N1CCN(c2ncnc3onc(-c4ccc(F)cc4)c23)CC1	?	-8%	10%[46.1 µM]	.	.	-2.1%	.	.
Cc1csc(SCCn2c(N3CCCC3)nc3c2c(=O)[nH]c(=O)n3C)n1	5%	-5%	-8%	-4%	5%	2.1%	11%	4%
COc1ccc(N2CC(c3nc(-c4cc(OC)c(OC)c(OC)c4)no3)CC2=O)cc1Cl (stereo not given)	-14%	?	?	.	.	-6.3%	.	.
O=C(Cn1cnc2ccccc21)N/N=C/c1cccs1	-1%	-4%	?	1%	6%	-4.3%	-7%	20%
CCn1cc(CN2CCCC(C(=O)Nc3cccc(-n4cccn4)c3)C2)c(C)n1 (stereo not given)	-5%	.	0%	5%	2%	.	-6%	1%
CCc1nc2ccc(C(=O)NCCc3ccc(SC)cc3)cc2nc1CC	16%	-1%	-5%[46.1 µM]	.	.	0.9%	.	.
COc1cc(CN2CCNC(=O)C2CC(=O)NCCCC2CCCC2)cc(OC)c1 (stereo not given)	-12%	.	.	3%	.	.	7%	-3%
COc1ccc(-c2nc(CS(=O)CC(=O)N3CCCC3)c(C)o2)cc1 (stereo not given)	-20%	6%	.	-7%	3%	-3.0%	3%	5%
O=C(NCc1ccccc1)c1ccc(OC2CSC2)cc1	31%[activator]	7%	-2%	-6%	?	6.4%	-2%	11%
COc1cc(-c2cc3n(C)c(C)c(CCC(=O)Nc4ccc(F)cc4)c(=O)n3n2)cc(OC)c1OC	-11%	-8%	0%[46.1 µM]	.	.	1.0%	.	.
CCc1cc2c(=O)c(-c3ccc4c(c3)OCCO4)coc2cc1OC(=O)c1ccco1	19%	-21%	?	1%	?	0.4%	0%	-1%
Cc1ccc(OCC(=O)N(Cc2ccco2)c2ccccn2)cc1	39%[activator]	-5%	14%[46.1 µM]	.	0%[46.1 µM]	0.1%	.	.
CCOC(=O)C1=C(CN2CCN(CCC#N)CC2)NC(=O)NC1c1ccc2c(c1)OCO2 (stereo not given)	-6%	.	3%	4%	?	.	.	-2%
CCOC(=O)CSC1=Nc2ccccc2C2=NC(CC(=O)NCc3ccccc3)C(=O)N12 (stereo not given)	0%	-1%	0%	-9%	7%	-5.7%	6%	10%
COCCNC(=O)[C@H](CSCc1ccccc1)N1Cc2ccccc2C1=O	?	.	.	0%	.	.	-3%	-1%
O=C(NNC(=S)NC1CCCCC1)c1ccc2c(c1)OCO2	92%[activator]	2%	20%	-7%	1%	5.0%	6%	4%
COc1cccc(NC(=O)Cn2c(-c3cncs3)nc3ccccc32)c1	-10%	1%	2%	-7%	10%[46.1 µM]	-4.4%	0%	5%
COc1ccc(-c2cn3c(C)c(C(=O)N4CCN(c5ccccc5F)CC4)sc3n2)cc1	-11%	.	.	3%	.	.	0%	-5%
N#CCC(=O)N/N=C/c1cn(Cc2ccc(Cl)cc2Cl)c2ccccc12	-12%	.	-12%	-1%	-22%[46.1 µM]	.	2%	29%
C=CCSc1nnc2nc3c(nn12)c1cc(C)ccc1n3CC=C	-29%	-12%	2%	-5%	-2%[46.1 µM]	3.5%	-54%	-14%
Cc1cc(C)cc(NS(=O)(=O)c2ccc3[nH]cc(C(=O)NCc4ccco4)c(=O)c3c2)c1	1%&-5%	-16%&-15%	?	10%	?	-13%&-13%	7%	4%
O=C(O)C1=C(OCc2ccccc2)C(=O)NCC1	17%	.	-12%[46.1 µM]	-1%	9%[46.1 µM]	.	8%	24%
COc1ccc(N=C2S/C(=C\c3cc(C)n(C)c3C)C(=O)N2C)cc1	-14%	?	4.5µM*	-5%	?	-3.5%	?	-4%
CCN(CC)C(=O)[C@H]1CC(CC(=O)NCc2cccc(C(F)(F)F)c2)C(=O)N2CCc3c([nH]c4ccc(OC)cc34)[C@]12C (stereo not given in full)	?	.	.	-4%	2%	.	.	7%
COc1ccc(C(=O)NCCCN2CCN(CCCNC(=O)c3ccc(OC)c(OC)c3)CC2)cc1OC	-16%	.	-3%	-4%	0%[46.1 µM]	.	.	6%
Cc1ccc(OCC(=O)Nc2ccc(S(=O)(=O)N3CCOCC3)cc2)c(C)c1	21%	.	-8%[46.1 µM]	-16%	-1%[46.1 µM]	.	10%	19%
CCN(CC)C(=O)CSc1ncnc2c1nnn2-c1ccc(F)cc1	-19%	-4%	19%	4%	6%	2.3%	7%	3%
COc1ccc(NC(=O)CCc2nc(-c3ccccc3F)no2)cc1	?	-6%	-9%	-14%	-1%	-4.0%	0%	-5%
O=C(Nc1ccncc1)c1ccc([N+](=O)[O-])cc1Cl	-6%	.	-20%	0%	-7%	.	0%	2%
COc1ccc(N(CC(=O)Nc2cccnc2)S(=O)(=O)c2ccccc2)cc1OC	2%	.	18%[46.1 µM]	-2%	-20%[46.1 µM]	.	7%	-4%
Cc1c(-c2cccc(NC(=O)Cc3ccccc3)c2)nc2ncccn12	44%[activator]	12%	27%[46.1 µM]	.	.	-3.8%	.	.
O=C(CN1CCc2ccccc2C1)Nc1cccc(S(=O)(=O)N2CCOCC2)c1	-23%	.	?	2%	-29%	.	.	0%
